FGF22 binding: FGF22 (human) thermal shift binding. 1.5% of 340,000 active. calls only at 9.99 µM. recombinant FGF22 thermal shift, SYPRO orange fluorescence; percent of sucrose octasulfate shift, DMSO zero. Q9HCT0. AID 651658;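 active = melting point raised past a set limit in the mean and every replicate; inconclusive = no clear call; three in four hits are not shown here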
Target sequence (Q9HCT0 whole entry, looked up): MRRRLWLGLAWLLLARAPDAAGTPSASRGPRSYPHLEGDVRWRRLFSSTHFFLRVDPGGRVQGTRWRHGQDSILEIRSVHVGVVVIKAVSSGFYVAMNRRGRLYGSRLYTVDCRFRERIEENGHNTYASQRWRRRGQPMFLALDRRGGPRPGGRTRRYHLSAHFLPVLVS
ALR inh: blocks human ALR sulfhydryl oxidase activity; 3.8% of 290,000 active; inhibition, % (no concentration beside the values); purified ALR, DTT oxidation, H2O2 HRP-luminol luminescence; AID 485317; P55789;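 active = mean and each replicate at 75% or more; inconclusive = only one of the two met; inactive = neither met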;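 note: stock transfer was 7.5 nL into about 7.5 µL; 0% = neutral wells and 100% = wells with inactivated enzyme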
Target sequence (P55789 whole entry, looked up): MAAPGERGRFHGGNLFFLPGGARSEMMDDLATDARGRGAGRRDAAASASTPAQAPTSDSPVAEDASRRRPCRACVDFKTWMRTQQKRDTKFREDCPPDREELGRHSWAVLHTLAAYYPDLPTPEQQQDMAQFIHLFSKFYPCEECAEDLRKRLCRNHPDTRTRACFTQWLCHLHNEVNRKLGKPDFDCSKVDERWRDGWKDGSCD
E coli growth: inhibitors of Escherichia coli growth; OD600, 23 h; hits give low values; OD600 absorbance (no concentration beside the values); 0.21% of 330,000 active; AID 1053175;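 active = OD600 absorbance below the run mean of sample wells minus 3.6 SD, in any replicate, cut at about 0.56 in these data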;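 note: stock transfer was 300 nL into about 60 µL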
Vif A3G: HIV-1 Vif–A3G interaction blockers – biochemical, TR-FRET, GST-Vif 1-94, biotin-A3G peptide, dose response retest, primary screen (AID 1117319); TR-FRET GST-Vif / biotin-A3G peptide binding; higher % means a stronger effect; test concentration not given here; strong numbers were not always called active; inhibition, %, or IC50 in µM where a hit was titrated; 0.57% of 260,000 active;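 active = above the screen mean plus three standard deviations and confirmed in dose response; inconclusive = results disagree or hit not tested in dose response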;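 note: Vif residues 1-94 fused to GST binding biotinylated APOBEC3G peptide 110-148; 0% = full assay without inhibitor and 100% = GST in place of GST-Vif; retest series ran down from 100 µM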
Ecoli rRNA inh: inhibits bacterial ribosomal RNA function over humanized ribosomes; E. coli WT GFP vs humanized-ribosome RFP mutants, fluorescence, 24 h; hits give low values; DMSO median 0, no signal -100; 1.6% of 350,000 active; GFP signal change (wild-type ribosome), % (no concentration beside the values); AID 720706;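 active = significant combined selectivity score with lowered wild-type GFP, culture density cut under 30%, mutant RFP and density less affected; inactive = any of these conditions unmet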; note: one replicate is shown; some compounds called inactive have numbers as strong as hits
HNF4A DNA FP: change in binding of human HNF4 alpha to DNA; HNF4a-FITC DNA binding, fluorescence polarization, 1 h; activity change, % at 10 µM; 0.3% of 360,000 active; P41235; AID 1224865; in the data active = activity change above about 30%, passing the limit was not always enough;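 note: controls were the assay level and a saturating level of protein; the project sought stronger binding though the title names inhibitors; some compounds called inactive have numbers as strong as hits; positive values seem to mean higher polarization but the record does not say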
AF4-AF9 inh: blocks AF4 peptide binding to human AF9. P42568. AlphaScreen, biotin-AF4 peptide binding to FLAG-AF9. inhibition, % at 10 µM. 0.47% of 350,000 active. AID 651704;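 active = every replicate reaching a set inhibition limit, whatever the replicate mean, cut at about 25% in these data; inconclusive = mean inhibition reaches that limit but some replicates miss it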;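 note: 0% = plate neutral control median and 100% = total signal loss; the record names both 10 and 1 µM as test concentration; the first replicate is given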
Target sequence (P42568 whole entry, looked up): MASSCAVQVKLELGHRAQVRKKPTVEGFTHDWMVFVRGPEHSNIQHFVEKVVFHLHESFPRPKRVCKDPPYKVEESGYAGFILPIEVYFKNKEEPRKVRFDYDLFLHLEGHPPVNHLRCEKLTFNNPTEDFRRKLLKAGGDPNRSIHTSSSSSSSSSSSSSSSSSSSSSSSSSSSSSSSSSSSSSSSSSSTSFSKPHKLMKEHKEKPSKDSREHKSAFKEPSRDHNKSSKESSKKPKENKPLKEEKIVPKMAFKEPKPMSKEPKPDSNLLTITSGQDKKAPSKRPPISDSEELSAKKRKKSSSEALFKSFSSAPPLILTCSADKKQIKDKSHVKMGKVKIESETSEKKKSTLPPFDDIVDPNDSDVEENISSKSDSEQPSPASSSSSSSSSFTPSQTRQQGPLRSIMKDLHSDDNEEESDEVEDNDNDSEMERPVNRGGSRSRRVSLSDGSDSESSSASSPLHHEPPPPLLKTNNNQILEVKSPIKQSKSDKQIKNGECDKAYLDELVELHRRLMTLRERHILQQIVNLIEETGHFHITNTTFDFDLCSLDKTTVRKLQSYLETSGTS
Ecoli rRNA inh OD600: second read-out of Ecoli rRNA inh, no call of its own (marks repeat the call); OD600 change, %; measured here: OD600 growth;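 optical density of the mix in the first replicate; 0 = DMSO median and -100 = no signal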
Ecoli rRNA inh RFP: second read-out of Ecoli rRNA inh, no call of its own (marks repeat the call); RFP signal change, %; measured here: RFP humanized mutant strains;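 first replicate; 0 = DMSO median and -100 = no signal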
* marks the source's active call; other numbers are inactive results; i = inactive; ? = inconclusive; nt = not tested or not shown; + = active, no number; & = joins results of further samples. Some of the compounds tested. The share of hits here may be higher or lower than overall.

FGF22 binding	ALR inh	E coli growth	Vif A3G	Ecoli rRNA inh	Ecoli rRNA inh OD600	Ecoli rRNA inh RFP	HNF4A DNA FP	AF4-AF9 inh	smiles
i	-17	nt	nt	9	4	7.0	0.8	-14	C[C@H](NC(=O)c1nc[nH]c1C(=O)NCCCCCN)C(=O)OC(C)(C)C
i	0	0.66	-7%	-5	-4	-1.2	5.9	0.9	Cc1cccc(NC(=O)c2cc(Cl)nc3ccccc23)n1
i	-6	0.7	-4%	-5	-8	1.8	-1.2	-0.7	CC(C)OC(=O)c1cc2c(=O)[nH]c(C(Cl)(Cl)Cl)nc2o1
i	-4	0.65	-24%	5	5	0.0	1.9	0.1	O=C(Cn1ncc2c3ccccc3n(Cc3ccccc3)c2c1=O)NCc1ccccn1
i	-4	0.73	-8%	-6	5	1.6	-1.7	0.0	COC(=O)c1c(CSc2ccc(C)c(C)c2)noc1C(=O)NCc1ccc(OC)cc1
i	nt	nt	nt	-2	11	0.7	nt	2.3	C[C@H]1CN([C@@H](C)CO)C(=O)c2cc(/C=C/c3ccccc3)cnc2O[C@@H]1CN(C)C(=O)c1cnccn1
i	-8	0.68	nt	10	18	9.2	-2.0	-1.2	CC(C)N1CC(C(=O)Nc2ccc(Cl)c(Cl)c2)CC1=O (centres undefined)
i	nt	nt	nt	-1	-8	0.2	nt	-4.9	COc1ccc(S(=O)(=O)Nc2ccc3c(c2)C(=O)N([C@@H](C)CO)C[C@@H](C)[C@@H](CN(C)S(=O)(=O)c2cn(C)cn2)OCCCC[C@H](C)O3)cc1
i	-8	0.66	32%	1	2	-1.0	-1.4	2.3	CCCN(CC(=O)Nc1ccccc1C)C(=O)CSc1ccccc1C
i	nt	nt	nt	-1	0	0.6	nt	0.7	O=C(C[C@H]1C=C[C@@H](NC(=O)Nc2cc(F)ccc2F)[C@@H](CO)O1)NCc1ccncn1
i	nt	nt	nt	4	3	-2.3	nt	-1.3	O=C(C[C@H]1CC[C@H]2[C@@H](COC[C@@H](O)CN2CC2CCOCC2)O1)NCC1CC1
i	nt	0.69	-12%	-3	-5	2.1	0.9	0.7	Cc1ccc(NC(=O)COc2cccc(-n3cnnn3)c2)cc1S(=O)(=O)N1CCOCC1

Reformatted: 2 of the compounds above.
Structure | FGF22 binding | ALR inh | E coli growth | Vif A3G | Ecoli rRNA inh | Ecoli rRNA inh OD600 | Ecoli rRNA inh RFP | HNF4A DNA FP | AF4-AF9 inh
O=C(Cn1ncc2c3ccccc3n(Cc3ccccc3)c2c1=O)NCc1ccccn1 | i | -4 | 0.65 | -24% | 5 | 5 | 0.0 | 1.9 | 0.1
COC(=O)c1c(CSc2ccc(C)c(C)c2)noc1C(=O)NCc1ccc(OC)cc1 | i | -4 | 0.73 | -8% | -6 | 5 | 1.6 | -1.7 | 0.0

(cont.)
FGF22 binding	ALR inh	E coli growth	Vif A3G	Ecoli rRNA inh	Ecoli rRNA inh OD600	Ecoli rRNA inh RFP	HNF4A DNA FP	AF4-AF9 inh	smiles
i	nt	nt	nt	-7	-16	3.0	nt	3.4	COC(=O)C[C@H]1CC[C@@H]2[C@@H](COc3ccc(NC(=O)Nc4cccc(C)c4)cc3C(=O)N2C)O1
i	nt	0.69	nt	-12	-10	-2.2	-1.1	2.2	C=C1CCN(c2ccc(C(=O)NCc3ccc(OC)cc3)cc2[N+](=O)[O-])CC1
nt	-1	0.69	0%	nt	nt	nt	-0.1	nt	CCOC(=O)C1CCN(C(=O)Cc2ccc(C)cc2)CC1
i	-4	nt	-2%	-2	0	-2.3	2.4	6.6	COc1ccc(/C=N/NC(=O)c2cccnc2)cc1CN1CCc2cc(OC)c(OC)cc2C1C (centres undefined)
i	-10	0.68	15%	6	10	0.1	0.7	-1.5	COc1ccccc1C(=O)Oc1ccc2ccc(=O)oc2c1
nt	-14	nt	-8%	nt	nt	nt	-2.7	nt	CCn1cc(C(=O)NCc2ccco2)c(=O)c2cc(S(=O)(=O)N3CCC(C)CC3)ccc21
i	-5	0.66	nt	3	11	-0.1	2.4	-0.7	O=C(NC1CCCC1)C1CCN(C(=O)c2cccc(Cl)c2)CC1
nt	14	0.73	-2%	nt	nt	nt	2.9	nt	O=C(CN1C2CCC1CC(NC(=O)C1CC1)C2)NCc1ccccc1 (centres undefined)
i	0	0.69	12%	4	-1	-5.5	nt	5.3	NC(=O)CCC(NS(=O)(=O)c1ccc(Cl)cc1)C(=O)NCc1ccccc1 (centres undefined)
i	nt	nt	nt	8	10	1.5	nt	-1.4	C[C@H](O)C#Cc1cnc2c(c1)C(=O)N([C@@H](C)CO)C[C@H](C)[C@@H](CN(C)Cc1ccccn1)O2
i	nt	nt	nt	0	5	0.9	nt	3.8	COc1ccc(NC(=O)Nc2ccc3c(c2)C(=O)N([C@H](C)CO)C[C@@H](C)[C@H](CN(C)C(=O)c2ccccc2)OCCCC[C@@H](C)O3)cc1
i	nt	0.72	nt	-1	6	-4.0	-4.8	0.7	CCOC(=O)C1(CCOC)CCN(CC(C)Cc2ccc3c(c2)OCO3)CC1 (centres undefined)
+	-5	0.68	3%	2	14	10	-0.4	8.9	CCOc1ccc(N2C(=O)C(CC(=O)Nc3ccc(F)cc3)N(Cc3ccccn3)C2=S)cc1 (centres undefined)
i	nt	nt	nt	-4	-26	-0.3	nt	0.3	CC(C)C#Cc1ccc2c(c1)O[C@@H](CN(C)S(=O)(=O)c1cn(C)cn1)[C@H](C)CN([C@@H](C)CO)S2(=O)=O
i	-73	0.71	-4%	7	8	-7.3	4.0	-1.4	Cc1ccc(NC(=O)Cn2ccsc2=N)cc1S(=O)(=O)N(C)C
i	nt	nt	nt	-7	-2	5.6	nt	2.8	Cc1ccccc1S(=O)(=O)N1[C@H](CO)[C@@H](c2ccccc2)[C@@H]1C#N
nt	0	0.71	11%	nt	nt	nt	0.0	nt	CCOC(=O)C1[C@H]2C(=O)N(CCCOC)C[C@]23C=C[C@H]1O3 (some centres undefined)
nt	-8	0.69	1%	5	12	-1.5	-0.6	nt	Cc1ccc(S(=O)(=O)CC(=O)c2ccc(C)c([N+](=O)[O-])c2)cc1
i	nt	nt	6%	-9	-6	5.1	3.2	-0.8	CCCCCC(=O)N1C[C@H](n2cc(COC(=O)c3ccccc3)nn2)[C@@H](O)C[C@@H]1c1ccccc1
i	nt	0.71	nt	2	-13	-0.9	-2.5	-0.4	CN(C(=O)c1cccc(NC(=O)Cc2ccc(NC(=O)C3CCCN(C(=O)C4CCCCC4)C3)cc2)c1)C1CC1 (centres undefined)
i	-2	0.63	9%	-8	3	-3.1	3.7	-2.4	CC(=O)OC(C(=O)NC1CCCCC1)c1ccccc1Cl (centres undefined)
i	nt	0.68	1%	-7	-8	-2.6	-0.4	2.1	CN(Cc1cccnc1)C(=O)c1ccc(Cl)c(NS(=O)(=O)c2ccc(F)cc2)c1
i	-21	0.71	11%	-16	1	-1.6	-0.3	-5.5	CCN(CC)C(=O)Oc1nnc(SC(C)C)n1-c1ccc(Cl)c(Cl)c1
i	-4	0.64	nt	14	9	-1.2	1.1	-2.6	CCCCN(C(=O)c1ccccc1F)c1c(N)n(CCC)c(=O)[nH]c1=O
nt	0	0.72	?	nt	nt	nt	-0.4	nt	COc1cc(C(=O)O)cc(Br)c1OC1CCCC1
i	nt	nt	nt	1	5	-1.3	nt	-1.7	COc1ccc(CNC(=O)C[C@H]2C=C[C@@H](NS(=O)(=O)c3cccc(OC)c3)[C@H](CO)O2)cc1
i	nt	nt	nt	0	2	-1.8	nt	0.2	CC(C)CC#Cc1cnc2c(c1)C(=O)N([C@H](C)CO)C[C@@H](C)[C@H](CN(C)C(=O)Cc1ccccc1)O2
i	nt	nt	nt	nt	nt	nt	3.0	8.0	O=C(O)c1cn(-c2ccc(F)cc2)c2cc(N3CCNCC3)c(F)cc2c1=O
i	nt	nt	nt	2	-5	4.6	nt	0.2	C[C@@H]1CCCCO[C@@H](CN(C)Cc2ccccc2)[C@@H](C)CN([C@@H](C)CO)C(=O)c2cc(NC(=O)Nc3ccc(C(F)(F)F)cc3)ccc2O1
i	nt	nt	nt	-1	-1	-3.8	nt	-13	CN1CCN(C(=O)C[C@@H]2CC[C@@H]3[C@@H](COc4ccc(NC(=O)C5CCCCC5)cc4C(=O)N3C)O2)CC1
i	nt	nt	nt	-4	2	-2.3	nt	-2.0	Cc1ccccc1S(=O)(=O)NCC[C@@H]1CC[C@@H](NC(=O)C2CCCCC2)[C@H](CO)O1
i	4	0.72	0%	2	-14	3.6	-2.6	1.4	COCCn1c(NC(=S)NC(=O)C23CC4CC(CC(C4)C2)C3)cc(=O)[nH]c1=O
i	nt	nt	nt	-2	-2	-0.4	nt	0.9	C[C@@H]1CN([C@H](C)CO)C(=O)c2cc(NC(=O)c3ccncc3)ccc2O[C@H]1CN(C)S(=O)(=O)c1ccc(F)cc1
nt	-9	0.64	-2%	nt	nt	nt	-3.3	nt	CC(C)Cc1ccc(S(=O)(=O)N2CCN(C(=O)c3ccco3)CC2)cc1
i	4	0.69	8%	17	24	3.8	-3.1	4.2	O=C(C[n+]1cccc2ccccc21)c1ccc(Cl)cc1
i	nt	0.69	-9%	2	4	-3.3	-2.1	0.6	Cn1c(SCC(=O)NCCc2ccccc2)nc2c([nH]c3ccccc32)c1=O
i	-2	nt	nt	7&11	15&5	-2.7&-2.7	-2.5	-2.2	C[C@H]1CN([C@@H](C)CO)C(=O)Cc2cc(NC(=O)CCC(F)(F)F)ccc2O[C@H]1CN(C)CC1CC1
i	19	0.73	nt	2	5	4.2	2.6	-5.1	Cc1c(C)c2ccc(OCC(=O)NC(Cc3ccc(Cl)cc3)C(=O)O)cc2oc1=O (centres undefined)
i	-8	0.72	-4%	-18	-29	-1.4	-3.0	11	Fc1ccc(-c2nc3c(-c4ccccc4)cnn3cc2CCN2CCOCC2)cc1
i	nt	0.66	4%	-1	-6	4.1	3.6	-7.3	Cc1ccc(C)c(NC(=O)CN(C)C(C)C(=O)N2CC(C)CC(C)C2)c1 (centres undefined)
i	nt	0.7	-2%	4	14	1.2	-0.2	0.8	COc1ccc(N2CCN(C(=O)CSc3nnc(NC(=O)C4CCC4)s3)CC2)cc1
i	44	0.66	19%	-8	17	-2.5	6.6	14	C[n+]1ccc(/C=C/c2ccccc2O)c2ccccc21
i	0	0.71	nt	-26	-24	-0.7	-2.8	-2.5	O=C(c1cc(-c2cccc(Br)c2)nc2ccccc12)N1CCCC1
nt	2	0.71	-1%	nt	nt	nt	0.3	nt	CCCOC(=O)Nc1cc(OC)c(Cl)cc1OC
nt	4	0.78	nt	-42	-63	-9.5	-2.9	nt	Cc1ccc(S(=O)(=O)N2[C@@H](c3ccccc3F)C(C(=O)O)=CC[C@H]2c2ccc(Cl)c(Cl)c2)cc1
nt	3	0.69	0%&-8%	nt	nt	nt	2.2	nt	COc1ccc(C2=NOC(C(=O)Nc3cc(Br)ccc3O)C2)cc1OC (centres undefined)
i	nt	nt	nt	-2	8	-0.8	nt	-1.6	COCC(=O)Nc1ccc2c(c1)[C@@H]1C[C@H](CC(=O)NCc3ccccc3F)O[C@@H](CO)[C@@H]1O2
i	nt	nt	nt	4	17	5.5	nt	13	C[C@H]1CN([C@@H](C)CO)S(=O)(=O)c2ccc(C#Cc3ccccc3F)cc2O[C@H]1CN(C)C
i	nt	0.65	4%	6	-2	4.1	-2.4	-2.5	CC1=CCC2C(=O)N(c3cccc(C(=O)NC(C)c4ccccc4)c3)C(=O)C2C1 (centres undefined)
i	nt	nt	5%	16	17	2.7	0.3	-8.8	Nc1nnc2cc(F)ccc2n1
nt	-8	0.69	67%	nt	nt	nt	-6.2	nt	CCCN(CCC)S(=O)(=O)c1cc(Br)cc2c1N(C(=O)CC)CC2
